RE007 growth inh – qHTS Assay for Inhibitors of the HIV-1 protein Vpr; S. pombe RE007 Vpr strain, BacTiter-Glo ATP luminescence, 24 h; control for the full effect not named in the record; Potency, µM (highest dose often 92.2 µM), without a hit: at the highest dose activity change, negative = less growth; 360,000 tested, 0.21% active; active = well fitted falling curve with a large enough effect; inconclusive = small, poorly fitted or top-dose-only effect; inactive = no such curve, though single readings can be large or run the other way;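 further: on the % scale 0 is the no-effect control and ±100 the full control effect; nearly all actives have a fitted effect of over 50% in size; the assay follows cell death caused by Vpr and the record does not say whether a fall means rescue or toxicity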
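Fission yeast strain RE007, carrying one chromosomally integrated HIV-1 vpr copy, was seeded at OD 0.01 in PMG+AL medium with 23 nL pinned compound. After 24 h at 30 °C and 99% humidity, viability was read by BacTiter-Glo luminescence.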
SARS PLpro yeast – qHTS of Yeast-based Assay for SARS-CoV PLP; AID 485353, 2010; S. cerevisiae expressing SARS-CoV PLpro, growth rescue; control for the full effect not named in the record; Potency, µM (series often up to 32.9 µM), inactives show at the highest dose activity, positive = growth rescue; 330,000 tested, 0.19% active; active means well fitted rising curve with a large enough effect; inconclusive means small, poorly fitted or top-dose-only effect; inactive means no such curve, though single readings can be large or run the other way; further: 0% is about no effect; nearly all actives have a fitted effect of over 55% in size; growth read by luminescence after 48 h
StopGo reporter – High Throughput Screening for Foot and Mouth Disease Virus Antivirals | human cells with a luciferase reporter of 2A StopGo recoding; control for the full effect not named in the record | Potency, µM (highest dose often 57.9 µM), inactives show at the top dose signal change, negative = less light | 410,000 tested, 1.2% active | AID 1159524, 2015; active = well fitted falling curve with a large enough effect; inconclusive = small, poorly fitted or top-dose-only effect; inactive = no such curve, though single readings can be large or run the other way; tested in HEK293T cells; further: on the % scale 0 is the no-effect control and ±100 the full control effect; nearly all actives have a fitted effect of over 45% in size; luciferase light after 4 h
Numbers without * were called inactive; ? = inconclusive; [ ] = another dose, or the depositor's remark. Potency means the concentration at half of the fitted maximal effect. Only part of the results is shown, so the mix of outcomes need not match the whole.

molecule	RE007 growth inh	SARS PLpro yeast	StopGo reporter
CCOc1c2ccccc2nn1CCOC	-3%	2%	4%
CC(C)(C)OC(=O)C[C@H]1C/C=C\C[C@H](CC(=O)N[C@H](CO)Cc2ccccc2)C(=O)N[C@H](Cc2ccccc2)COC1=O	-18%	4%	-18%
COc1ccc2c(-c3cnc(N4CCOCC4)nc3)c(-c3ccc(S(C)(=O)=O)cc3)sc2c1	-6%	7%	-20%
CC1CCCC(NC(=O)c2cccc(S(=O)(=O)NCc3ccccc3)c2)C1C (configuration not stated)	8%	-4%	0%
O=c1[nH]nc(CNc2ccc(Cl)cc2Cl)c2ccccc12	2%	2%	-19%
CSCCC(NC(=O)c1ccco1)C(=O)NC1CCC(C)CC1 (configuration not stated)	10%	1%	67%[activator]
COc1ccccc1CNC(=O)c1cccc(S(=O)(=O)N2CCN(c3ccc(F)cc3)CC2)c1	-9%	-12%	-17%
CCOC(=O)c1ccc(S(=O)(=O)N2CCN(C(=O)c3ccccn3)CC2)cc1	-9%	-1%	-26%
CC(C)(C)OC(=O)C[C@H]1C/C=C\C[C@@H](CC(=O)N(CCO)Cc2ccccc2)C(=O)N[C@H](C(C)(C)C)COC1=O	-7%	6%	-17%
CCOc1ncccc1C(=O)N1CCN(S(=O)(=O)c2ccc3c(c2)OCCO3)CC1	-10%	2%	-20%
CC(C)c1ccc(/C=N/NC(=O)c2ccccc2Cl)cc1	17%	-6%	71%[activator]
Cc1nn(CC(=O)OCC(=O)Nc2cccc(S(N)(=O)=O)c2)c(C)c1[N+](=O)[O-]	-1%	-4%	-9%
CC(=O)N1c2ccccc2S(=O)(=O)c2ccccc21	-9%	1%	-22%
CC(C)(C)OC(=O)NCCOC(=O)c1[nH]cnc1C(=O)NCc1ccccc1	1%	1%	0%
C=CC[C@@H](CC(=O)N[C@H](CO)Cc1ccccc1)C(=O)N[C@@H](COC(=O)[C@@H](CC=C)CC(=O)OC(C)(C)C)Cc1ccccc1	1%	-3%	-28%
COCc1c(Br)c(C)nc(OCC(=O)N/N=C/c2ccc(C)o2)c1C#N	3%	1%	-12%
COc1ccc(SCCN2CC[C@@H](O)CCC2=O)cc1	-18%	-23%	18%
COc1ccc(C(CNC(=O)c2ccc(OCc3c(C)noc3C)cc2)N2CCCC2)cc1 (configuration not stated)	-9%	-6%	-20%
CC1CCC2(CC1)NC(=O)N(CC(=O)N1CCN(c3ccccc3)CC1)C2=O (configuration not stated)	-6%	1%	-19%
Cc1cc(NC(=O)COC(=O)c2cnccn2)ccc1Br	-3%	0%	58%[activator]
CCCN(CC(=O)Nc1ccccc1OC)C(=O)CCC(=O)c1ccc(OCC)cc1	2%	-3%	-19%
Cc1ccccc1-c1cc(C(=O)NCc2cccc(C(F)(F)F)c2)nn1CC1CC(c2cccc([N+](=O)[O-])c2)=NO1 (configuration not stated)	1%	-6%	11%
CCOC(=O)c1c(NC(=O)CN(C)C2CCN(C)CC2)sc(C(=O)Nc2ccccc2)c1C	2%	-13%	27%
CCN(CC)S(=O)(=O)c1ccc(N2CCOCC2)c(NC(=O)COc2ccccc2C)c1	-4%	-1%	-22%
CCN([C@H](CO)CC(C)C)S(=O)(=O)c1ccccc1	14%	4%	-7%
O=C(NNC(=S)Nc1ccc(Cl)cc1Cl)c1cccnc1	21%	-2%	72%[activator]
CC1CC1C(=O)OCC(=O)c1c(N)n(C)c(=O)n(C)c1=O (configuration not stated)	-6%	0%	-1%
O=C(Nc1cccc(S(=O)(=O)NC2=NCCC2)c1)c1ccc(OC(F)F)cc1	-4%	1%	-8%
CC(=O)O[C@H]1[C@H]2O[C@]23[C@@H]2CC[C@]4(O)C[C@@H](O)CC[C@]4(C)C2CC[C@]3(C)[C@H]1c1ccc(=O)oc1 (some centres not stated)	13%	5%	?
COc1ccc(-c2noc(CCC(=O)N3CCN(c4ccccc4Cl)CC3)n2)cc1	5%	7%	-16%
CC1Sc2ccc(C(=O)NCc3cccc(C(F)(F)F)c3)cc2NC1=O (configuration not stated)	-2%	-2%	8%
CC(c1ccccc1)N1C(=O)OC(C)(C)C1(C)O (configuration not stated)	0%	0%	-10%
O=C(O)CSc1nnc(-c2cccc(S(=O)(=O)N3CCOCC3)c2)n1-c1ccc(F)cc1	27%	-1%	21%
CCOc1ccc(OCCCC(=O)Nc2cc(Cl)ccc2-n2cncn2)cc1	-9%	3%	?
C[C@H](CO)N1C[C@H](C)[C@@H](CN(C)Cc2ccc(Cl)c(Cl)c2)Oc2c(NC(=O)C3CC3)cccc2C1=O	7%	-1%	3%
O=C(COc1cccc(F)c1)Nc1nc(-c2ccncc2)cs1	-18%	-5%	?
Cc1cc(C)cc(NC(=O)COC(=O)Cc2ccccc2F)c1	-10%	2%	0%
NS(=O)(=O)c1ccc(-c2c(-c3ccccc3)sc3ccccc23)cc1	2%	1%	-18%
C(#CC12CC3CC(CC(C3)C1)C2)CN1CCOCC1	19%	1%	-15%
O=C(C1CCN(S(=O)(=O)c2cccs2)CC1)N1CCN(Cc2ccccc2)CC1	-17%	1%	-19%
NC(=O)C(=O)N/N=C/c1c[nH]c2ccc(Br)cc12	2%	-3%	0%
CC(=O)Nc1cccc(C(=O)OC(C)C(=O)Nc2ccc(S(=O)(=O)N3CCCC3)cc2)c1 (configuration not stated)	5%	-2%	-20%
O=C(CN1C(=O)NC2(CCCC2)C1=O)Nc1cc(Cl)ccc1Oc1ccccc1	1%	1%	-29%
O=C(C[C@H]1C/C=C\CC[C@@H](Cc2ccc(F)cc2)C(=O)O[C@@H](c2ccccc2)CNC1=O)N[C@H](CO)Cc1ccccc1	15%	-1%	-7%
CCOC(=O)c1sc(NC(=S)NC(=O)c2ccccc2)nc1C	8%	-2%	62%[activator]
c1nc(CCO[C@H]2CCCCO2)cc2cc3c(cc12)OCO3	-6%	2%	-55%
CCN(CC(=O)Nc1c(F)cccc1F)C(=O)c1cn2ccccc2n1	6%	-3%	-10%
CCN(CC(=O)Nc1ccc(S(=O)(=O)N2CCCC2)cc1)CC(=O)Nc1ccccc1C(F)(F)F	1%	3%	-23%
CN1CCN(C(=O)CCCN2C(=O)/C(=C/c3ccc(Cl)cc3)SC2=S)CC1	-22%	4%	-9%
O=C(NC(=S)Nc1ccc(Cc2ccncc2)cc1)c1ccc(F)cc1	-12%	-4%	-5%

Additional compounds:
Molecule	RE007 growth inh	SARS PLpro yeast	StopGo reporter
CC(=O)NC(CC(=O)OCC(=O)N1CCN(S(=O)(=O)c2ccc(C)cc2C)CC1)c1ccccc1 (configuration not stated)	3%	2%	?
Cc1cccc(C)c1NC(=O)CNC(=O)c1ccc(COc2ccccc2)cc1	9%	-4%	20%
c1ccc(CN(Cc2ccccc2)c2nn[nH]n2)cc1	3%	0%	2%
O=C(OCCOc1ccc(F)cc1)c1ccc(S(=O)(=O)N2CCCC2)cc1	6%	0%	-21%
Cc1ccc(S(=O)(=O)N2CCN(C(=O)CCOc3cc(C)ccc3C)CC2)cc1	-14%	-27%	0%
CN(C(=O)c1ccc(NC(=O)Cc2ccc(NC(=O)C3CCN(C(=O)C4CCC4)CC3)cc2)cc1)C1CC1	2%	5%	-8%
COC(=O)c1ccc(COC(=O)CNC(=O)c2ccc(OC)cc2)cc1	-12%	1%	37%[activator]
CC(=O)c1c(C)[nH]c(C(=O)NC(C)c2ccccc2)c1C (configuration not stated)	-6%	2%	-13%
COc1ccc(N2CCN(C(=O)CCS(=O)(=O)c3ccc(OC)cc3)CC2)cc1	-3%	2%	-11%
O=C(CN1C(=O)NC(Cc2ccccc2)C1=O)Nc1ccc(F)c(Cl)c1 (configuration not stated)	-11%	0%	-22%
C/C=C/C(=O)N[C@@H]1c2ccccc2CC[C@@H]1OCc1ccccc1	-7%	-14%	1%
COc1ccc(NC(=O)COC(=O)C2CC2)c(OC)c1	6%	5%	11%
CC1CN(C(NC(=O)c2ccccc2)C(Cl)(Cl)Cl)CC(C)O1 (configuration not stated)	1%	-2%	-13%
CN(Cc1ccc(Cl)cc1)C(=O)COC(=O)c1ccc(-c2ccc(O)cc2)cc1	-2%	-9%	-10%
O=C(NCc1cccc2ccsc12)c1cccs1	?	-1%	-2%
C[C@H](CO)N1C[C@H](C)[C@@H](CN(C)S(=O)(=O)c2ccccc2)Oc2ccc(NS(=O)(=O)c3ccccc3)cc2C1=O	15%	2%	6%

A portion from further up, for reference:
Molecule	RE007 growth inh	SARS PLpro yeast	StopGo reporter
O=C(CN1C(=O)NC(Cc2ccccc2)C1=O)Nc1ccc(F)c(Cl)c1 (configuration not stated)	-11%	0%	-22%
C/C=C/C(=O)N[C@@H]1c2ccccc2CC[C@@H]1OCc1ccccc1	-7%	-14%	1%

Next records.
Molecule	RE007 growth inh	SARS PLpro yeast	StopGo reporter
COc1cccc(NC(=O)c2ccc(S(=O)(=O)N(C)C)cc2)c1	2%	-1%	11%
Cc1ccc(S(=O)(=O)N2[C@@H](c3ccccc3)C(C(=O)O)=CC[C@H]2c2cccs2)cc1	-8%	2%	36%[activator]
COc1cccc(OC)c1C(=O)OCC(=O)N(c1ccccc1)C1CCCCC1	4%	1%	-2%
CC(=O)Nc1ccc(NC(=O)C(C)OC(=O)c2c(NC(C)=O)sc(C)c2C)cc1 (configuration not stated)	8%	?	-8%
CC(=O)Nc1cccc(NC(=O)CSc2n[nH]c(-c3ccccc3)n2)c1	-13%	-6%	16%
COc1ccc(S(=O)(=O)CCC(=O)Nc2cc(C)ccc2OC)cc1	9%	-3%	10%
COC(=O)CC1C(=O)NCCN1C(=S)Nc1cccc(C(F)(F)F)c1 (configuration not stated)	5%	-1%	-20%
COc1cccc(-c2sc3ccc(OC)cc3c2-c2ccc(OC)cc2F)c1	-9%	-6%	30%[activator]

Only SARS PLpro yeast and StopGo reporter, for some of the entries so far:
SMILES	SARS PLpro yeast	StopGo reporter
CC(=O)O[C@H]1[C@H]2O[C@]23[C@@H]2CC[C@]4(O)C[C@@H](O)CC[C@]4(C)C2CC[C@]3(C)[C@H]1c1ccc(=O)oc1 (some centres not stated)	5%	?
Cc1cc(C)cc(NC(=O)COC(=O)Cc2ccccc2F)c1	2%	0%
CC(=O)c1c(C)[nH]c(C(=O)NC(C)c2ccccc2)c1C (configuration not stated)	2%	-13%

Other entries:
Molecule	RE007 growth inh	SARS PLpro yeast	StopGo reporter
COc1ccccc1C1=CC(=O)CC(C)(C)C1=O	-9%	4%	-13%
O=C1NC(=S)NC(=O)C1=Cc1cccn1-c1ccc(O)cc1	-2%	0%	20µM*
O=C(COC(=O)CN1C(=O)NC2(CCCCC2)C1=O)Nc1cc(F)ccc1F	-1%	3%	-23%
CC(C)N(C(=O)[C@H]1CC(CC(=O)NCCC2=CCCCC2)C(=O)N2CCc3c([nH]c4ccccc34)[C@]12C)C(C)C (some centres not stated)	8%	-2%	-24%
O=C(Nc1ccc(F)c(Cl)c1)C1CCCCC1	-13%	0%	0%
O=C1CN(S(=O)(=O)c2cc(Br)ccc2Br)CCN1	-12%	-2%	23%
O=C(COC(=O)/C=C/c1ccc(Cl)cc1)Nc1cccc(S(=O)(=O)NC2=NCCCCC2)c1	-6%	-5%	-20%
CCCn1c(N)c(C(=O)CN2CCN(S(=O)(=O)c3cccc(Cl)c3)CC2)c(=O)[nH]c1=O	-10%	16%	?
CCC1CCCCN1C(=O)c1sc2ncnc(N(CC)CC)c2c1C (configuration not stated)	-9%	-2%	9%
CCn1c(SCC(=O)N2CCCC2)nc2ccccc21	2%	0%	1%
O=c1c([N+](=O)[O-])cccn1Cc1cccc(Cl)c1	-10%	1%	-14%
COc1ccc(-c2nc(=S)[nH][nH]2)cc1OC	12%	4%	0%
Oc1ccc(C[C@H]2CNCCN2CCc2cccc(F)c2)cc1	10%	1%	-10%
COc1ccc(S(=O)(=O)N2CCN(C(=O)c3ccc4ccccc4n3)CC2)cc1	-3%	-3%	0%
O=C(CN1CCc2ccccc21)Nc1ccc2c(c1)OCCCO2	3%	9%	84%[activator]
CCCCNc1c(-c2ccc(-c3ccc(C(C)=O)cc3)c(OC)c2)nc2cnccn12	6%	0%	-6%
CC(OC(=O)C1=NN(c2ccccc2)C(=O)CC1)C(=O)NC1CCCCC1C (configuration not stated)	-8%	-1%	-6%
OC(c1nnc(-c2ccccc2)o1)c1cccs1 (configuration not stated)	7%	-7%	77%[activator]
CC(C)CN(C(=O)C1CCC1)c1c(N)n(Cc2ccccc2)c(=O)[nH]c1=O	0%	1%	-22%
COC(=O)[C@]1(Cc2ccccc2)N[C@H](CN(C)C(=O)c2ccccc2)[C@@H]2C(=O)N(Cc3ccccc3)C(=O)[C@@H]21	-3%	-4%	-17%

Screens: PubChem BioAssay, National Center for Advancing Translational Sciences (NCATS)
